HCMV UL50-53 inh = inhibitors of HCMV UL50-UL53 nuclear egress complex interaction | HTRF UL50-UL53 interaction, normalized percent inhibition | actives 0.15% (n = 190,000) | AID 1918969 | inhibition, % (test concentration not listed);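 active = both replicates at 50% or more, plus weaker picks with an unusually low signal ratio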;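 also: stock transfer was 100 nL into about 20 µL; 0% = negative control wells and 100% = wells with untagged competitor protein; inactives centre near -12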
Sa growth 42C = inhibitors of Staphylococcus aureus growth at 42 °C | S. aureus RN4220 growth, OD600, 20 h; stronger effect = lower value | relative growth, % (concentration not given with the values) | actives 0.53% (n = 170,000);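 active = growth at 42 °C up to 50% and 20 or more points under that at 30 °C, or under 10% at both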;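 also: 300 nL library stock went into each well; scaled to the means of positive and negative controls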
GIV Gai3 FP = inhibitors of GIV GBA-motif binding to rat Galpha-i3; Galpha-i3/FITC-GIV peptide fluorescence polarization, 90 min; stronger effect = lower value; scaled: aluminum fluoride 0%, vehicle 100%; actives 0.42% (n = 210,000); percent of control (FP), % (concentration not given with the values);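 active = replicate mean at 85% of control or lower, very high polarization wells dropped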;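 also: wells of about 15 µL received 100 nL stock; the first replicate is given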
Target sequence (P08753 whole entry, looked up): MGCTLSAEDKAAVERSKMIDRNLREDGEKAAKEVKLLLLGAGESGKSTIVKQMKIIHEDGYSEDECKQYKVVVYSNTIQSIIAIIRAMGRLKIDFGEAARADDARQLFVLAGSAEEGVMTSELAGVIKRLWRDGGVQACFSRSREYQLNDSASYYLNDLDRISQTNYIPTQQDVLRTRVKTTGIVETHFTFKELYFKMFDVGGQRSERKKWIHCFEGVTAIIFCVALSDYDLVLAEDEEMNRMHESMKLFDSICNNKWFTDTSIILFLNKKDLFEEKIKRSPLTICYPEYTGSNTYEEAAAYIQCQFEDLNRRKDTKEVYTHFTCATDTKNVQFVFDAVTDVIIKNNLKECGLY
Sa growth 42C second temp = second read-out of Sa growth 42C, no call of its own (marks repeat the call); relative growth, %; measured here: growth at 30 °C;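 optical density after 20 h as mean of two plates; 100% = untreated growth and lower means inhibition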
An asterisk follows results filed as active; . = not tested or not shown; & = joins results of further samples. Compounds were not picked by outcome; overall some 0.79% were active at least once.

Sample of the layout, 15 compounds:
SMILES	HCMV UL50-53 inh	Sa growth 42C	Sa growth 42C second temp	GIV Gai3 FP
O=C(c1ccccc1)c1cccc(N=Cc2c(O)[nH]c(=O)[nH]c2=O)c1	-25	124	88	102
CCc1ccc(CNC(=O)c2ccc(CS(=O)c3ccc(Br)cc3)o2)cc1 (stereo unspecified)	-17	19*	46*	106
NC(=O)Cn1nnc(-c2ccccc2)n1	-10	73	87	.
Cc1c(Cl)cccc1NC(=O)CN1C(=O)C(C)CSc2ccc(S(=O)(=O)N3CCCC3)cc21 (stereo unspecified)	-1	.	.	98
CSc1c(C#N)c(-c2cccs2)nn1C(=O)C(C)(C)C	-14	100	69	101
Fc1ccc(-c2cc3ncc4c(n3n2)-c2cc(Cl)ccc2OC4)cc1	3&-22	95	84	107&100
CCc1nnc(NC(=O)CSc2ccc3nnc(-c4ccc(F)cc4)n3n2)s1	-46	.	.	92
CCOc1ccc(C2=NCCNC3=C2C(c2ccccc2)N(c2ccccc2)C3=O)cc1 (stereo unspecified)	-58	102	75	97&103
CCC(=N)C1=C(O)CC(C)(C)CC1=O	-15	81	87	.
C/C(=C(/C#N)C(N)=O)c1ccccc1	-16	110	86	99
C=CCn1c(NC(C)=O)nc2ccccc21	-18	.	.	102
CCOc1ccc(-n2c(C)nc3c(cnn3-c3ccccc3Cl)c2=O)cc1	2	105	104	97
Cc1c(/C=C/C(=O)Oc2ccc(C#N)cc2)sc2ccccc12	-19	110	87	101
CCOC(=O)CSc1nc2ccc(NC(=O)COc3ccccc3C)cc2s1	-11	105	94	102
O=C(CC(Sc1ccccc1C(=O)O)c1ccc(F)cc1)c1ccc(F)cc1 (stereo unspecified)	-20	90	66	101

The listing, repeating the preview:
SMILES	HCMV UL50-53 inh	Sa growth 42C	Sa growth 42C second temp	GIV Gai3 FP
O=C(c1ccccc1)c1cccc(N=Cc2c(O)[nH]c(=O)[nH]c2=O)c1	-25	124	88	102
CCc1ccc(CNC(=O)c2ccc(CS(=O)c3ccc(Br)cc3)o2)cc1 (stereo unspecified)	-17	19*	46*	106
NC(=O)Cn1nnc(-c2ccccc2)n1	-10	73	87	.
Cc1c(Cl)cccc1NC(=O)CN1C(=O)C(C)CSc2ccc(S(=O)(=O)N3CCCC3)cc21 (stereo unspecified)	-1	.	.	98
CSc1c(C#N)c(-c2cccs2)nn1C(=O)C(C)(C)C	-14	100	69	101
Fc1ccc(-c2cc3ncc4c(n3n2)-c2cc(Cl)ccc2OC4)cc1	3&-22	95	84	107&100
CCc1nnc(NC(=O)CSc2ccc3nnc(-c4ccc(F)cc4)n3n2)s1	-46	.	.	92
CCOc1ccc(C2=NCCNC3=C2C(c2ccccc2)N(c2ccccc2)C3=O)cc1 (stereo unspecified)	-58	102	75	97&103
CCC(=N)C1=C(O)CC(C)(C)CC1=O	-15	81	87	.
C/C(=C(/C#N)C(N)=O)c1ccccc1	-16	110	86	99
C=CCn1c(NC(C)=O)nc2ccccc21	-18	.	.	102
CCOc1ccc(-n2c(C)nc3c(cnn3-c3ccccc3Cl)c2=O)cc1	2	105	104	97
Cc1c(/C=C/C(=O)Oc2ccc(C#N)cc2)sc2ccccc12	-19	110	87	101
CCOC(=O)CSc1nc2ccc(NC(=O)COc3ccccc3C)cc2s1	-11	105	94	102
O=C(CC(Sc1ccccc1C(=O)O)c1ccc(F)cc1)c1ccc(F)cc1 (stereo unspecified)	-20	90	66	101
Cc1ccc2oc(=O)c3cnn(CC(=O)N(C)c4ccccc4)c3c2c1	-4	82	85	103
Cc1ccccc1-n1c(-c2cccnc2)noc1=O	-1	104	93	109
Cc1ccc(Cn2c(SC(C)C(N)=O)nc3ccccc3c2=O)cc1 (stereo unspecified)	4	121	90	.
Cc1ccc2nc(NC(=O)c3cc(=O)c4cc(C)c(C)cc4o3)sc2c1	-19	91	84	102
NC(=O)CSc1nnc2scc(-c3ccc(Cl)cc3)n12	0	94	92	101
CC1CN(C(=O)C(C)Sc2nc(-c3ccccc3)cc(C(F)(F)F)n2)CC(C)O1 (stereo unspecified)	-9	102	94	105
CC1=C(C#N)C(NC(=O)c2ccccc2)(C(F)(F)F)C(=O)N1 (stereo unspecified)	-1	82	94	99
CCc1ccc(CN(Cc2ccco2)C(=O)c2ccccc2Cl)cc1	-7	83	53	107
CCc1ccc(C(=O)c2cn(CC(=O)Nc3ccc(F)c(F)c3)c3cc(OC)c(OC)cc3c2=O)cc1	-2	108	93	105
Cc1cccc(C)c1OCCn1c(CCNC(=O)C2CCCCC2)nc2ccccc21	-5	90	53	103
COC(=O)c1c2c(n3cc4ccccc4cc13)C(=O)c1ccccc1C2=O	.	93	90	176
O=C(Cn1ncn2nc(-c3ccco3)cc2c1=O)NCc1ccccc1	.	97	64	103
Cc1ccc2nc(-c3ccc(N4C(=O)C=CC4=O)cc3)sc2c1	-6	96	85	.
CC(C)NC(=O)C1CCN(C(=O)c2cc3sccc3n2Cc2ccc(Cl)cc2)CC1	-14	110	88	104
COc1cc(Cl)c(NC(=O)CCS(=O)(=O)c2ccc3c(c2)NC(=O)CO3)c(OC)c1	.	92	91	104
CCc1cc2c(NCCN3CCCCC3)ncnc2s1	-5	89	76	104
COc1cc(CN2CCc3nc(Nc4ccc5c(c4)OCCO5)ncc3C2)cc(OC)c1OC	.	97	92	101
O=C(Cn1c2ccccc2c(=O)c2ccccc21)Nc1cc(Sc2ccc(F)cc2)cc([N+](=O)[O-])c1	-29	.	.	104
CC1CCc2cc(F)ccc2N1C(=O)c1cccs1 (stereo unspecified)	0	102	95	107
N#Cc1cccc(NC(=O)COC(=O)C2=NNC(=O)CC2)c1	-15	84	92	.
Oc1ccccc1C1NN=C(c2ccccc2)S1 (stereo unspecified)	-14	114	96	103
Cc1nc(-c2cc(S(=O)(=O)NCC(=O)NCc3ccccc3Cl)c(C)s2)no1	-11	.	.	103
O=c1[nH]c2c(c(=O)[nH]1)CCC2	-33	91	87	.
CCOC(=O)c1c(C)n(-c2cccc(Br)c2)c2c1cc(O)c1ccccc12	-21	.	.	99
Cc1cc(C(=O)NCCN(C)Cc2ccccc2)c2cccc(-c3ccc(F)cc3)c2n1	-7	.	.	107
O=C(CSc1ccccn1)c1ccc(Cl)cc1	-24	114	85	104
CCC(=O)NC1(C(F)(F)F)N=C(c2ccccc2)N(C2CCCC2)C1=O (stereo unspecified)	-24	89	82	103
Cc1ccsc1C=Nc1ccc(Nc2ccccc2)cc1	-10	103	72	.
Cc1noc(C)c1S(=O)(=O)NCCCN1CCCC(C)C1 (stereo unspecified)	-4	89	80	99
CCOCCCNC(=O)C1c2c(n(C)c3ccccc23)SCC(=O)N1c1cc(OC)ccc1OC (stereo unspecified)	-27	.	.	97
COc1ccccc1NS(=O)(=O)c1ccc2c(c1)CCN2C(=O)CCC(=O)O	.	97	96	102
Cc1ccnc(NC(c2ccc3c(c2)OCO3)c2c(C)[nH]c3ccccc23)c1 (stereo unspecified)	-9	21	0	101
CC(C)(S)C(N)C(=O)O (stereo unspecified)	-55&-49	89	91	.
CCCCNC(=O)c1cn(CC)c2ccc(S(=O)(=O)N3CCCCCC3)cc2c1=O	-34	85	89	107
COCc1cc(C)nc(Oc2ccccc2)c1C#N	-15	110	89	106
COC(=O)CNC(=O)N1CCCC1c1ccc(Cl)cc1 (stereo unspecified)	-23	.	.	102
CSc1nn(-c2ccccc2)cc1-c1noc(-c2cccs2)n1	6	102	93	103
FC(F)(F)c1cc(-c2ccco2)nc(-n2nc(C(F)(F)F)cc2C2CC2)n1	-24	86	85	97
Cn1c(=O)n(C)c2cc(N3CCOCC3)c(NS(=O)(=O)c3ccc(C(C)(C)C)cc3)cc21	-11&-27	96	86	102&104
CC(=Nc1ccccc1)C1=C(O)CCCC1=O	-17	78	91	.
COc1ccc(C)cc1NC(=O)c1sc2nc(-c3ccc(F)cc3)cn2c1C	.	86	94	103
CCN1/C(=C\C(=S)Nc2ccccc2)Sc2ccccc21	-42	63	76	102
COc1cc(NC(=O)CCC2CCCC2)c(C(=O)N2CCN(C(C)=O)CC2)cc1OC	-16	93	89	.
CCOc1ccc(-c2nc3c(c(SCC(=O)N4CCCCC4)n2)Cc2cccc(OC)c2O3)cc1	-39	111	84	107
CCc1ccccc1Oc1ncccn1	-15	81	97	.
Next section.
SMILES	HCMV UL50-53 inh	Sa growth 42C	Sa growth 42C second temp	GIV Gai3 FP
Cc1ccc(S(=O)(=O)N(C)C2CCCCC2)cc1-c1nnc2c3ccccc3c(C)nn12	.	80	80	102
CC(C)C1OCC2Cc3ccccc3C2O1 (stereo unspecified)	12	88	82	103
CCOC(=O)c1ccc2c(c1)nc(COc1ccc(OC)cc1)n2CC	3	92	96	.
CN(C)C(=O)N1CCNCC1	1	99	97	.
CC1CCC(C(C)C)C(OC(=O)COC(=O)c2ccc(Br)o2)C1 (stereo unspecified)	-20	85	89	.
O=C(COc1ccccc1C(=O)N1CCN(c2ccccc2O)CC1)Nc1ccc(Br)cc1	13	110	98	.
O=C(NCCc1cccs1)c1ccc(OC(F)(F)F)cc1	-6	107	98	106
CCOc1ccccc1N1C(=O)CC(N(O)c2ccccc2)C1=O (stereo unspecified)	.	125	75	106
CCOC(=O)COc1ccc(F)cc1C(=O)c1ccn2nc(-c3ccc(F)cc3)cc2n1	-38	.	.	95
Cc1cc(C)cc(NS(=O)(=O)N(C)C)c1	-17	100	95	105
CCOc1ccc(N(C)S(=O)(=O)c2c(C(=O)N3CCC(C)CC3)c(C)n(C)c2C)cc1	.	77	92	98
COc1ccc(C)cc1NC(=O)CCS(=O)(=O)c1ccc2c(c1)CC(=O)N2C	.	92	89	103
COc1ccc(CNC(=O)C(C)C)cc1	0	112	89	110
Cc1n[nH]c(=O)c2cc3ccccc3n12	-24	100	88	106
Cn1c(=O)cc(N2CCOCC2)c2c(=O)n(-c3ccccc3)c(=O)n(-c3ccccc3)c21	-21	118	93	109
CC(=O)Nc1ccc(S(=O)(=O)N[C@@H](C)C(=O)N(C)Cc2cccs2)cc1	-18	95	84	.
Cc1cn(CCC(=O)NC2Cc3ccccc3C2)c2ccccc12	6	125	97	101
Cc1ccc(Nc2nnns2)cc1	5	95	95	106
C=CCn1c(=O)c(=O)n(Cc2ccc(C(=O)O)cc2)c2ccccc21	-19	.	.	98
C/C(=N\NC(=O)C(C)C)c1cc(C)c(C)cc1C	-26	70	88	.
Cc1cc(NC(=O)CC#N)no1	-22	98	84	103
O=C(CSc1nc2ccccc2n1Cc1cccc(F)c1)NCc1ccccc1	.	84	86	104
CC(=O)Nc1ccc2oc3ccccc3c2c1	.	101	99	98
Cc1ccc2cc3c(nc2c1)N(S(=O)(=O)c1ccc(F)cc1)CC3	10	.	.	96
COc1cc2c(cc1NC(=O)CSCC(=O)O)oc1ccccc12	-2	113	93	.
O=C1c2ccccc2C(Nc2ccc(Cl)cc2)N1Cc1ccco1 (stereo unspecified)	-4	76	69	109
Cc1sc2nc3c4ccccc4c(N4CCN(CCO)CC4)nn3c(=O)c2c1C	-7	.	.	94
Cc1ccc(Cn2c(C)c3cnn(CC(=O)N4CCN(c5ccc(F)cc5)CC4)c(=O)c3c2C)cc1	8	92	39	106
COc1ccc(-c2cn3nc(N4CCC(C(=O)Nc5cccc(C)c5C)CC4)sc3n2)cc1	.	94	84	103
COc1ccc(OCC(O)Cn2c(=N)n(CCN3CCCCC3)c3ccccc32)cc1 (stereo unspecified)	-12	118	81	102
Cc1ccc2c(c1)OC=CC(C(=O)NCc1ccccc1Cl)=C2	-22	.	.	103
Cc1ccc(S(=O)(=O)N2CCCC2C(=O)O)cc1 (stereo unspecified)	.	112	92	102
C=CCN(c1ccccc1OC)S(=O)(=O)c1cccc(C(=O)OC)c1	24	144	108	.
O=C(O)CCS(=O)(=O)Cc1ccccc1	16	95	84	98
CS(=O)(=NS(=O)(=O)c1cccc2nonc12)c1ccccc1 (stereo unspecified)	-148	100	97	98
Fc1ccc(/C=N/N2CCOCC2)cc1	-7	102	100	.
CCCn1c(-c2cccs2)n[nH]c1=O	-9	89	88	100
CSc1ccc(CNC(=O)C2CCN(c3nc4ccccc4nc3C(F)(F)F)CC2)cc1	.	100	88	100
O=C(CSc1nnc(-c2ccco2)n1CC1CCCO1)c1ccccc1 (stereo unspecified)	-24	89	52	104
OCc1cccn1-c1ncc(C(F)(F)F)cc1Cl	-20	.	.	102
O=C1c2ccccc2C(=O)N1c1ccccc1S(=O)C(F)(F)F (stereo unspecified)	-26	104	102	101
Fc1ccc(-c2csc(-c3nc(-c4ccc(Br)cc4)cs3)n2)cc1	-19	.	.	102
CCOC(=O)c1c2nc3ccccc3nc2n2c1[nH]c(=O)c1c3c(sc12)CCCC3	-28	100	99	.
CCOC(=O)C(C)Sc1nnc(Cc2cc(=O)[nH]c(=O)[nH]2)n1-c1ccc(F)cc1 (stereo unspecified)	2	116	91	99
Cc1ccc2occ(CC(=O)Nc3ccc(F)cc3)c2c1	.	92	86	105
O=c1[nH]c2ccc(Cl)cc2c(-c2ccccc2)c1SCCO	-27	101	75	106
O=c1[nH]c2cc(Cl)ccc2c(-c2ccccc2)c1Sc1ncn[nH]1	4	108	101	111
O=C(NCCc1ccc(Cl)cc1)C1CCN(S(=O)(=O)c2ccc3c(c2)OCCO3)CC1	-26	91	88	.
CCOC(=O)Nc1ccc(OC)cc1OC	-2	105	87	100
